# High-throughput results from PubChem BioAssay.
# BJeLR viability: MLPCN primary cell-based screen for lethality selective to Ras in HRASV12 cells | BJeLR (HRASV12) viability, CellTiter-Glo ATP luminescence, 48 h; reference of the scale not given here | inhibition, % (concentration not given with the values) | 300,000 compounds, 0.17% hits | AID 1554, 2009;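 active = replicate mean above 50%; inconclusive = above 50% but judged a plate artefact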;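 also: 50 nL library stock added to about 25 µL; numbers are from one replicate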
# Autofluor counter: compound fluorescence in toxin protease inhibitor counterscreen | compound autofluorescence counterscreen, microsphere flow cytometry; hits give high values | fluorescence intensity (test concentration not listed) | 360,000 compounds, 3.1% hits | AID 624483;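 active = at least 3 SD above the mean of all compounds, about 16000 in these data; inconclusive = too few beads counted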;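 also: 100 nL of 1 mM stock went into each well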
# Sa ugtP lethal: growth inhibition of ugtP-null S. aureus, primary screen, RN4220 ugtP deletion, OD600; growth inhibition, % (no concentration beside the values); 16 h; some inactives read as strong as hits; AID 1259309, 2017; 330,000 compounds, 0.54% hits;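 active = z-score under -3 and OD600 up to 0.15 on both plates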;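 also: plate controls were untreated wells for no effect and antibiotic for full effect; wells of about 80 µL received 100 nL stock; the first replicate is given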
# PrP UTR inh: inhibition of PrP 5' UTR reporter expression. cell-based PrP 5' UTR mRNA reporter, plate reader. 340,000 compounds, 0.35% hits. inhibition, % (concentration not given with the values). AID 488862, 2010;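 active = every replicate at 50% or more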;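 also: 0 = median of the neutral control wells; tested in H4 reporter cells; numbers are from one replicate; inactives centre near -14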
# RN4220 kill: growth inhibition of S. aureus RN4220, primary screen, OD600; 16 h; inhibition, % (test concentration not listed); 330,000 compounds, 0.33% hits; AID 1259311, 2017;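 active = z-score of -3 or lower and OD600 up to 0.18 on both plates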;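 also: plate controls were untreated cells for no effect and reference antibiotic for full effect; stock transfer was 100 nL into about 80 µL; one replicate is shown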
# Mtb hypoxia rep: PubChem AID 1159583; fluorescence inhibition, % (concentration not given with the values); 300,000 compounds, 0.1% hits; M. tuberculosis hypoxia-regulated fluorescent reporter, fluorescence;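 active = 35 to 45% if threefold the growth effect, above 45% if 1.5-fold the growth effect; inactive = the rest, general growth blockers included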;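 also: wells of about 50 µL received 100 nL stock; 0% = vehicle wells and 100% = reference inhibitor wells; whole bacteria with a GFP reporter of the hypoxia response; strong numbers were not always called active; many hits fall short of the cut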
# Mtb hypoxia rep growth: further read-out of Mtb hypoxia rep, marked with its call; growth inhibition, %; measured here: M. tuberculosis growth (absorbance);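 0% = vehicle and 100% = reference antibiotic; read after six days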
# The depositor's hits bear a star; ? = inconclusive; . = no result given; & = joins results of further samples.
no.	smiles	Autofluor counter	Sa ugtP lethal	BJeLR viability	Mtb hypoxia rep growth	PrP UTR inh	RN4220 kill	Mtb hypoxia rep
1	Cc1ccc(-n2nnc3c(SCC(=O)NCC4CCCO4)ncnc32)cc1 (stereo not given)	.	7	17	7	-9	4.5	6
2	CCCCc1ccc(NC(=S)N2CCC(O)CC2)cc1	4602	1	-3	-8	-11	7.3	13
3	CC(C(=O)N1CCc2ccccc21)N1CCN(S(=O)(=O)c2cccs2)CC1 (stereo not given)	2767	2	.	-5	-4	2.2	-14
4	COC(=O)c1ccc(NC(=O)CSC2=NCCN2)cc1	2063	-3	2	4	10	0.1	6
5	CCOC(=O)c1nc(-c2ccccc2)oc1N1CCOCC1	2396	1	-7	15	7	1.8	-5
6	CN(C)C=Nc1ncc2c3ccccc3n(CCN(C)C)c2c1C#N	2449	22	13	-1	15	17	6
7	CCc1cc2ccc(OC)cc2nc1SCC(=O)NNC(C)=O	4290	-14	-9	6	-32	-5.0	-5
8	Cc1[nH]c2ccccc2c1/C=C/c1nc2ccccc2c(=O)n1-c1cccc([N+](=O)[O-])c1	2551	-8	4	0	-22	1.7	-1
9	CCOC(=O)CSc1nnc(Cc2cc(=O)[nH]c(=O)[nH]2)n1-c1ccc(Cl)cc1	4518	2	-3	.	-6	0.7	.
10	CCCCn1c(N)c(N(CCOC)C(=O)C2CCCN(C(=O)c3ccc(Cl)cc3)C2)c(=O)[nH]c1=O (stereo not given)	7018	-1	11	-2	-3	3.1	10
11	O=C(CN(Cc1ccccc1Cl)C(=O)CNS(=O)(=O)c1ccccc1)NCC1CCCO1 (stereo not given)	4637	5	-15	1	-19	0.8	8
12	CC1Sc2ccc(C(=O)Nc3ccccc3OC(F)F)cc2NC1=O (stereo not given)	5173	6	-10	1	-41	3.9	10
13	CCCN1C=CC(=CC=C(C#N)C#N)C=C1	3712	1	-4	9	-15	0.3	10
14	Cc1c(CN2CCC(CO)(Cc3cccc(C(F)(F)F)c3)CC2)c2ccccc2n1C	2567	-11	6	-1	-3	-7.6	4
15	CCOC(=O)C1CCCN(c2cc(C)nc3cc(-c4ccc(Cl)cc4)nn23)C1 (stereo not given)	4279	13	-10	.	-3	-1.5	.
16	COc1ccccc1CC(=O)NN1C(=O)NC2(CCC(C)CC2)C1=O (stereo not given)	?	-2	.	2	-11	2.7	1
17	C=CC[C@@H](CC(=O)NCCO)C(=O)NCCOC(=O)[C@@H](CC=C)Cc1ccc(F)cc1	2952	11	.	4	-26	4.5	5
18	CCOC(=O)c1c(NC(=O)COC(=O)c2cnccn2)sc(C)c1C	2907	6	.	10	-14	7.4	11
19	O=C(COc1ccccc1Cl)NC(=S)Nc1ccc(CN2CCOCC2)cc1	9193	12	1	.	-18	1.6	.
20	CC(=C/C(=O)O)/C(=C\c1ccc(Br)o1)C(=O)O	4795	11	18	16	-18	3.8	8

# Reprinted at random: 5 compounds from above, in no set order.
no.	smiles	Autofluor counter	Sa ugtP lethal	BJeLR viability	Mtb hypoxia rep growth	PrP UTR inh	RN4220 kill	Mtb hypoxia rep
18	CCOC(=O)c1c(NC(=O)COC(=O)c2cnccn2)sc(C)c1C	2907	6	.	10	-14	7.4	11
10	CCCCn1c(N)c(N(CCOC)C(=O)C2CCCN(C(=O)c3ccc(Cl)cc3)C2)c(=O)[nH]c1=O (stereo not given)	7018	-1	11	-2	-3	3.1	10
15	CCOC(=O)C1CCCN(c2cc(C)nc3cc(-c4ccc(Cl)cc4)nn23)C1 (stereo not given)	4279	13	-10	.	-3	-1.5	.
4	COC(=O)c1ccc(NC(=O)CSC2=NCCN2)cc1	2063	-3	2	4	10	0.1	6
20	CC(=C/C(=O)O)/C(=C\c1ccc(Br)o1)C(=O)O	4795	11	18	16	-18	3.8	8

# More entries:
no.	smiles	Autofluor counter	Sa ugtP lethal	BJeLR viability	Mtb hypoxia rep growth	PrP UTR inh	RN4220 kill	Mtb hypoxia rep
21	CC(C)(CO)N1CCN(C(=S)Nc2ccccc2)CC1	3332	-1	8	-2	-3	-0.4	6
22	COc1ccccc1C(=O)NC(CCSC)C(=O)NCc1ccccn1 (stereo not given)	4681	-2	9	0	-13	5.8	0
23	CCC(Oc1ccccc1)C(=O)Nc1ccc(-c2nnc(-c3ccco3)o2)cc1 (stereo not given)	9193	-3	3	5	-42	5.8	11
24	COc1ccc(S(=O)(=O)N2CCc3ccccc32)cc1C(=O)Nc1cccnc1	5016	3	-2	4	-28	6.0	17
25	CSc1ccccc1OCc1cc(C(=O)N2CCC(Oc3cccnc3)CC2)no1	5623	.	1	.	-13	.	.
26	Cc1cc(/C=C(\C#N)C(=O)Nc2ccccc2)c(C)n1-c1cccnc1	2060	.	1	.	-62	.	.
27	Cc1cc(C(=O)CCC(=O)NNC(=O)c2ccccc2O)c(C)s1	?	-4	7	-2	4	1.7	1
28	Cn1c(N)c(S(=O)(=O)N2CCN(c3ccccc3F)CC2)c(=O)n(C)c1=O	4618	11	7	-2	-12	2.6	12
29	O=C(NN=Cc1ccc(O)cc1)C(=O)NN=Cc1ccc(O)cc1	3820	-1	.	8	-7	3.9	18
30	O=C(CNc1cccc(S(=O)(=O)N2CCCC2)c1)Nc1ccc(F)cc1F	?	7	6	5	-17	5.1	13
31	CC(=O)N1CCc2cc(Br)cc(S(=O)(=O)CCC(=O)N3CCN(c4ccccn4)CC3)c21	3269	0	-8	-1	-7	4.1	7
32	COc1ccc(S(=O)(=O)N2CCCCCC2)cc1C(=O)N(C)Cc1cccc(OC)c1OC	?	-1	-3	-4	-23	-1.5	-5
33	Nc1nonc1C(=O)NN=Cc1ccc(Br)o1	.	6	.	2	.	1.7	10
34	CCn1nc(NS(=O)(=O)c2ccc(NC(C)=O)cc2)c2cc3ccccc3nc21	6116	-3	-11	-1	-3	1.9	-13
35	CS(=O)(=O)NCc1csc(-c2ccccc2)n1	2364	-5	6	6	-13	3.2	6
36	COc1cccc(NC(=O)CNC(=O)Cn2cnc3sc(C)c(C)c3c2=O)c1	4158	11	-10	-1	1	6.8	-1
37	COc1ccc(Nc2nc(-c3sc(C)nc3C)cs2)cc1	4026	-7	17	6	37	-3.2	13
38	C/C(=N\N1CCCCCC1)c1c(O)n(-c2ccccc2C)c(=O)[nH]c1=O	3839	6	0	-2	-51	1.3	5
39	CC1(C)Cc2nc3sc4c(=O)n(CC(N)=O)cnc4c3cc2CO1	2937	.	6	.	-6	.	.
40	CN1CCN(c2nc3c(c(=O)[nH]c(=O)n3C)n2CCCSc2nnnn2-c2ccccc2)CC1	4261	-1	6	19	-5	3.9	-4
41	COc1cc(C2C(C#N)=C(N)Oc3c2ccc2ccccc32)ccc1OCC(=O)Nc1ccccc1C (stereo not given)	22354*	-23	5	3	-2	2.5	-1
42	O=C(Nc1ccc2snnc2c1)N1CCOCC1	3475	-3	-15	6	-4	2.4	5
43	Cc1ccc(C2=Nc3ccc(Br)cc3C(c3ccncc3)=NN2)cc1	2423	-7	-2	1	-18	-7.5	-6
44	O=C(Nc1ccc(C(=O)N2CCCC(CO)C2)cc1)c1ccc(Br)o1 (stereo not given)	3875	2	.	13	-13	3.8	8
45	O=C(Nc1cccc(S(=O)(=O)N2CCCC2)c1)c1ccc2c(=O)n3c(nc2c1)CCCCC3	2583	-1	-4	18	-26	5.8	9
46	CC(C)(C)OC(=O)CC1CC=CCC(CC(=O)NCCO)C(=O)NCC(c2ccccc2)OC1=O (stereo not given)	.	0&2&4&1&-7&-8	.	4&13&10&-5&3&10	.	5.8&7.3&8.4&6.9&2.8&2.6	6&11&15&-4&9&9
47	CCC(=O)NC1OC(CO)C(O)C(O)C1O (stereo not given)	3317	9	-3	6	-9	1.8	8
48	O=C(CCN1C(=O)c2ccccc2C1=O)N1CCOCC1	3107	-7	2	.	-25	-4.5	.
49	Cc1cccc(NC(=O)c2cc(S(=O)(=O)N3CCc4ccccc43)cn2C)c1C	4518	6	0	4	-13	-1.8	6
50	Cc1cc(C(=O)N2CCN(C(c3ccccc3)c3ccccc3)CC2)on1	5577	14	7	8	-16	0.8	12
51	CC(=NNC(=O)CNc1cccc2ccccc12)c1ccc(Br)s1	.	0	.	4	.	-1.3	5
52	Cn1c(SCC(=O)NNC(=O)c2ccc(Cl)cc2)nnc1-c1cccnc1	4301	15	-9	3	-12	2.2	1
53	Cc1ccc(C)c(Nc2cc(C(=O)NCc3cccnc3)c3ccccc3n2)c1	3503	3	-6	2	-17	2.2	11
54	CN1CC2([N+](=O)[O-])CC=C(OCCO)C([N+](=O)[O-])(C1)C2 (stereo not given)	1956	8	5	6	-4	0.8	8
55	COC(=O)c1cc(S(=O)(=O)N(C)Cc2ccco2)c[nH]1	5882	2	-2	-8	-10	3.2	-8
56	c1ccc(-c2nnc(CN3CCN(c4ccccc4)CC3)o2)cc1	6411	-3	11	9	-32	-5.0	13
57	CC(C)CN(C(=O)COC(=O)/C=C/c1ccc(Cl)c(Cl)c1)c1c(N)n(Cc2ccccc2)c(=O)[nH]c1=O	?	-5	.	-4	0	-0.9	0
58	O=S(=O)(c1cc(F)ccc1F)N1CCN(c2ccccn2)CC1	3840	-1	-1	1	-21	0.4	8
59	CCn1cc(C=NNC(=O)c2ccc3c(c2)c(C)c(C)n3Cc2ccccc2)c(C)n1	.	-14	.	9	.	4.7	3
60	N#Cc1nc(COc2ccc(Cl)cc2)oc1N1CCCCCC1	4680	4	.	.	-14	19	.
61	Cn1c(=O)c2c(nc(N/N=C/c3cccs3)n2Cc2ccccc2)n(C)c1=O	2420	.	10	.	-15	.	.
62	CCc1n[nH]c(=S)n1N=Cc1c[nH]c2ccc(Br)cc12	.	-16	.	-8	.	1.1	9
63	CCC(C)c1ccccc1NC(=S)Nc1cccnc1 (stereo not given)	4026	-3	-5	6	-11	4.6	2
64	CSCCC(NC(=O)c1ccc([N+](=O)[O-])cc1Cl)C(=O)OCC(=O)NC1CCCC(C)C1C (stereo not given)	2683	-4	5	11	-25	6.9	14
65	O=C(NCc1ccco1)c1ccccc1-c1nc(-c2ccccc2)no1	8585	21	-13	1	-14	8.7	8
66	CCOC(=O)COn1c(=O)c(=O)n(OC)c2ccccc21	3452	8	2	.	2	7.2	.
67	CCCn1nc(C(=O)N2CCN(c3ccccn3)CC2)c2ccccc2c1=O	3532	-7	.	4	-5	-1.7	3
68	CCOc1ccc(OCC)c(NC(=O)CSc2nnc(Cn3cnc4ccccc43)n2C)c1	7509	9	.	5	-11	3.5	19
69	O=C(C1CCC(Cn2c(=S)[nH]c3ccccc3c2=O)CC1)N1CCOCC1 (stereo not given)	?	3	-3	12	-3	2.6	9
70	Cc1cc(-c2nn(-c3ccccc3F)cc2CN2CCCC(O)C2)c(C)s1 (stereo not given)	3398	-2	14	6	0	3.3	-2
71	COc1cc(C(C#N)N2CCC(c3ccccc3)=N2)ccc1O (stereo not given)	4556	3	-16	3	-31	3.5	11
72	O=C(NCc1ccc2c(c1)OCO2)C1CC(=O)N(c2ccc(Cl)cc2)C1 (stereo not given)	3879	14	-6	-1	-21	14	0
73	Cc1ccccc1CN1C(=O)/C(=C\c2ccc(C(=O)NCCN3CCOCC3)cc2)Sc2ccccc21	5299	-5	7	-10	0	-1.5	-10
74	COc1ccc(NS(=O)(=O)c2cc(NC(=O)Cc3c(F)cccc3Cl)ccc2OC)cc1	3321	11	.	0	-12	3.0	-4

# Ordered by length of the SMILES (rising): four of the compounds above
no.	smiles	Autofluor counter	Sa ugtP lethal	BJeLR viability	Mtb hypoxia rep growth	PrP UTR inh	RN4220 kill	Mtb hypoxia rep
71	COc1cc(C(C#N)N2CCC(c3ccccc3)=N2)ccc1O (stereo not given)	4556	3	-16	3	-31	3.5	11
62	CCc1n[nH]c(=S)n1N=Cc1c[nH]c2ccc(Br)cc12	.	-16	.	-8	.	1.1	9
72	O=C(NCc1ccc2c(c1)OCO2)C1CC(=O)N(c2ccc(Cl)cc2)C1 (stereo not given)	3879	14	-6	-1	-21	14	0
68	CCOc1ccc(OCC)c(NC(=O)CSc2nnc(Cn3cnc4ccccc43)n2C)c1	7509	9	.	5	-11	3.5	19
